Marburg entry inh: Marburg virus entry inhibition. Marburg virus pseudotyped entry inhibition, cell reporter; control for the full effect not named in the record; about a third of the inactives were read at about 46 µM. Potency, µM (highest dose often 37.8 µM), without a hit: at the highest dose activity change, negative = inhibition, most hits filed as inhibitors. 300,000 tested, 1.8% active. AID 540276; active = well fitted inhibition curve with a large enough effect; inconclusive = small, poorly fitted or top-dose-only effect, or effect the other way; inactive = flat fitted curve, though single readings scatter; tested in HEK293 cells; about a fifth of its hits are not listed in these tables; note: % is set by controls: 0 for no effect and ±100 for the full control effect; luciferase read-out
SARS PLP yeast: inhibitors of SARS-CoV papain-like protease in yeast | S. cerevisiae expressing SARS-CoV PLpro, growth rescue; control for the full effect not named in the record | Potency, µM (top dose mostly 32.9 µM), without a hit: at the highest dose activity, positive = growth rescue | 330,000 tested, 0.19% active | AID 485353; active means well fitted rising curve with a large enough effect; inconclusive means small, poorly fitted or top-dose-only effect; inactive means no such curve, though single readings can be large or run the other way; note: 0% is about no effect; nearly all actives have a fitted effect of over 55% in size; growth read by luminescence after 48 h
2A StopGo: FMDV 2A StopGo reporter, luciferase signal; Potency, µM (series often up to 57.9 µM), inactives show at the top dose signal change, negative = less light; AID 1159524; human cells with a luciferase reporter of 2A StopGo recoding; control for the full effect not named in the record; 410,000 tested, 1.2% active; active = well fitted falling curve with a large enough effect; inconclusive = small, poorly fitted or top-dose-only effect; inactive = no such curve, though single readings can be large or run the other way; tested in HEK293T cells; note: % is set by controls: 0 for no effect and ±100 for the full control effect; nearly all actives have a fitted effect of over 45% in size; luciferase light after 4 h
Lassa entry inh: inhibitors of Lassa virus binding or cell entry; Lassa virus pseudotype entry inhibition, cell reporter; control for the full effect not named in the record; Potency, µM (titrated, usually from 37.9 µM), inactives show at the highest dose activity change, negative = inhibition, hits mostly inhibitors; 300,000 tested, 1.2% active; active means well fitted inhibition curve with a large enough effect; inconclusive means small, poorly fitted or top-dose-only effect, or effect the other way; inactive means flat fitted curve, though single readings scatter; tested in HEK293 cells; note: % is set by controls: 0 for no effect and ±100 for the full control effect; nearly all actives have a fitted effect of over 50% in size; luciferase read-out
NS1 inh: influenza NS1 inhibition; 270,000 tested, 0.4% active; AID 2326; S. cerevisiae slowed by influenza A NS1, growth recovery by OD600; Potency, µM (series often up to 46.1 µM), for the others: at the highest dose activity, positive = more growth; active means well fitted rising curve with a large enough effect; inconclusive means small, poorly fitted or top-dose-only effect; inactive means no such curve, though single readings can be large or run the other way; note: nearly all actives have a fitted effect of over 50% in size
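OD600 was taken as the measure of yeast growth restored by compound in an NS1-expressing S. cerevisiae strain. Cells had been washed out of glucose medium and diluted 1:100 into galactose -URA medium, pH 6.0.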
RE007 growth inh: less growth of the S. pombe RE007 Vpr strain; S. pombe RE007 Vpr strain, BacTiter-Glo ATP luminescence, 24 h; control for the full effect not named in the record; Potency, µM (top dose mostly 92.2 µM), inactives show top-dose activity change, negative = less growth; 360,000 tested, 0.21% active; AID 651644; active = well fitted falling curve with a large enough effect; inconclusive = small, poorly fitted or top-dose-only effect; inactive = no such curve, though single readings can be large or run the other way;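 note: % is set by controls: 0 for no effect and ±100 for the full control effect; nearly all actives have a fitted effect of over 50% in size; the assay follows cell death caused by Vpr and the record does not say whether a fall means rescue or toxicity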
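Fission yeast RE007 carrying one integrated HIV-1 vpr copy, seeded at OD 0.01 in PMG+AL medium with 23 nL pinned compound. Grown 24 h at 30 degrees; viability read by BacTiter-Glo luminescence after 5 min.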
Cruzain noTriton: blocks cruzain activity in detergent-free assay; P25779; purified cruzain, Z-FR-AMC fluorescence, no detergent; Potency, µM, for the others: max response, negative = inhibition, hits mostly inhibitors; 200,000 tested, 2.3% active;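 note: plate controls were enzyme without inhibitor for no effect and buffer without enzyme for full effect; nearly all actives have a fitted effect of over 40% in size; top concentration of the series not given in the record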
Target sequence (P25779 123-467 limits assumed): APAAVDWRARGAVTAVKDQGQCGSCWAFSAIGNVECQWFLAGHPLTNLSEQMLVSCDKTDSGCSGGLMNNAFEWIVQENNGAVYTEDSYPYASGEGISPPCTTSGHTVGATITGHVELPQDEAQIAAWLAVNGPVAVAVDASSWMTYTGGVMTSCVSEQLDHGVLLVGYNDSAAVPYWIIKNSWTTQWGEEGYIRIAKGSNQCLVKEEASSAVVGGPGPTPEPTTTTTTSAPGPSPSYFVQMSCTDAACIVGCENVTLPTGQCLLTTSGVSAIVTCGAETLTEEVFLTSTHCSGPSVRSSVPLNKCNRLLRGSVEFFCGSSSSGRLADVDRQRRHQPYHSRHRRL
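Detergent-free condition (0.00005% Triton X-100) in acetate buffer pH 5.5 with DTT. 1.5 nM enzyme and compound were pre-mixed 15 min, then 2 uM Z-FR-AMC substrate added; reaction progress from fluorescence change between first and third reads (60 s).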
Cruzain Triton: inhibitors of Trypanosoma cruzi cruzain with detergent; P25779; purified cruzain, Z-FR-AMC fluorescence, 0.01% Triton; Potency, µM, inactives show max response, negative = inhibition, most hits filed as inhibitors; 200,000 tested, 0.43% active;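 note: plate controls were neutral wells for no effect and buffer without enzyme for full effect; nearly all actives have a fitted effect of over 40% in size; top concentration of the series not given in the record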
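Steps: dispense cruzain (1.5 nM final) in acetate buffer pH 5.5 with DTT and 0.01% Triton X-100; pin-transfer compounds; incubate 15 min RT; add Z-FR-AMC (2 uM final); read fluorescence every 30 s, using the 60 s intensity change.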
Starred values were filed as active, the others as inactive; ? = inconclusive; nt = not tested or not shown; [ ] = remark or other dose. Unless noted, calls come from the whole dose curve; as a rule, active = well fitted curve in the direction sought with a large enough effect; inconclusive = small, poorly fitted or top-dose-only effect, or another doubt; inactive = no such curve, though single readings can be large; an effect the other way counts as inactive or inconclusive. Potency is the fitted concentration of half-maximal effect.

Each structure is followed by: Marburg entry inh	SARS PLP yeast	2A StopGo	Lassa entry inh	NS1 inh	RE007 growth inh	Cruzain noTriton	Cruzain Triton
> O=C(Oc1c(Cl)cc(Cl)c2cccnc12)N1CCOCC1
 : ?	1%	0%	?	-7%	-14%	-3%	-2.6%
> CCNc1nc(C)nc2c1oc1ccccc12
 : 17%	1%	4%	6%	-34%	-2%	7%	-1.2%
> Clc1ccccc1CN1CCN(c2cccc3[nH]ccc23)CC1
 : nt	-1%	-4%	nt	0%	4%	nt	nt
> Cc1occc1C(=O)Nc1ccccc1C#N
 : nt	-2%	0%	nt	-2%	4%	nt	nt
> O=C(COC(=O)/C=C/c1cccc(F)c1)Nc1ncccn1
 : ?	-2%	-11%	5%[46.1 µM]	3%	-12%	nt	nt
> CCC(Oc1ccc(C)cc1)C(=O)Nc1ccccc1C(=O)N1CCOCC1 (stereo unspecified)
 : -15%	1%	-22%	-26%	1%	-11%	nt	nt
> Cc1cc(C)c[n+](-c2nc3ccccc3nc2[N-]S(=O)(=O)c2cccs2)c1
 : ?	11µM*	27%	5%	-1%	-28%	-1%	-3.0%
> CCCc1oc2ccc(NS(=O)(=O)c3ccc(OCC)cc3)cc2c1C(=O)OCC
 : -23%[46.1 µM]	nt	33%[activator]	?	nt	nt	-7%	-11%
> CC(=O)Nc1ccc(OCC(=O)NCCc2ccccc2)cc1
 : 17%[46.1 µM]	-1%	0%	6%[46.1 µM]	nt	-7%	nt	nt
> CCc1ccc(NC(=O)C2=CC(c3ccc(OC)cc3)=NS(=O)(=O)N2C)cc1
 : nt	-6%	0%	nt	-4%	-6%	nt	nt
> CSc1cccc(NC(=O)/C=C/c2ccccc2)c1
 : ?	-14%	37%[activator]	?	-36%	?	-15%	-3.7%
> COc1ccc(CC(=O)OCC(=O)Nc2cccnc2Cl)cc1OC
 : -2%	1%	-7%	-1%	-2%	11%	nt	nt
> NS(=O)(=O)c1cccc(NC(=O)CSc2nc3ccccc3n2-c2ccccc2)c1
 : ?	0%	?	?	15%	2%	nt	nt
> O=C1C2C3C=CC(C4CC34)C2C(=O)N1/N=C/c1ccc(-c2ccc([N+](=O)[O-])cc2)o1 (stereo unspecified)
 : -1%[46.1 µM]	-4%	?	1%	-4%	1%	nt	nt
> CN(C)C(=O)N1CCN(S(=O)(=O)c2ccc3ccccc3c2)CC1
 : 0%[46.1 µM]	1%	-14%	nt	-6%	22%	nt	nt
> COc1nc(-c2ccccc2)ncc1S(=O)(=O)c1ccccc1
 : -3%	-2%	-26%	-18%	-4%	0%	nt	nt
> O=C(NC(Cc1ccccc1)C(=O)O)c1cccnc1Cl (stereo unspecified)
 : 4%[46.1 µM]	9%	-4%	7%[46.1 µM]	5%	-7%	nt	nt
> C=CCn1c(SC(C)C(=O)Nc2ccc(F)c(F)c2F)nnc1C1CC1 (stereo unspecified)
 : 19%[46.1 µM]	-1%	-18%	10%	nt	38%	nt	nt
> CCCCN(C)CCCNC(=O)Cn1ncc2c3ccccc3n(Cc3cc(C)ccc3C)c2c1=O
 : ?	nt	-22%	?	nt	nt	-2%	1.6%
> Cn1cc(CCC(=O)N2CCCC(C(=O)c3cccc4ccccc34)C2)cn1 (stereo unspecified)
 : 9%[46.1 µM]	1%	-13%	9%	-7%	11%	nt	nt
> CC(=O)Nc1cccc(N/C(N)=N/c2nc(C)cc(C)n2)c1
 : nt	-1%	-13%	nt	0%	-1%	nt	nt
> C=CCn1c(O)c(/C=N/N2CCCCC2c2cccnc2)c(=O)[nH]c1=S (stereo unspecified)
 : 4%	25%	-27%	-6%	10%	0%	8%	-6.5%
> CCSC1=C(C#N)C(c2cccc(O)c2)CC(=O)N1 (stereo unspecified)
 : nt	-4%	-1%	nt	4%	2%	-10%	3.5%
> Cc1ccc(SC[C@H](CC(C)C)N2CCN(C)CCC2=O)cc1
 : nt	-4%	51%[activator]	nt	-5%	1%	nt	nt
> CCOc1ccc(NC(=O)C2CCN(c3nnnn3-c3ccccc3)CC2)cc1
 : 17%	18%	-12%	-6%	-2%	5%	32%	-3.4%
> CCCN1CCC(N(C)CCc2ccc(OC)c(OC)c2)CC1
 : ?	-1%	nt	-24%	18%	5%	-5%	7.9%
> CC(C)c1ccc2occ(CC(=O)Nc3ccccc3Cl)c2c1
 : -10%[46.1 µM]	nt	-13%	6%[46.1 µM]	nt	nt	-5%	-15%
> CCC(C)[C@H](NC(=O)N1CCn2c1nc1ccccc12)C(=O)NCCc1ccccc1 (stereo partly specified)
 : -29%[46.1 µM]	0%	11%	0%[46.1 µM]	-7%	7%	nt	nt
> Cc1ccc(C(=O)NCCc2nnc3ccc(NCc4ccc5c(c4)OCO5)nn23)cc1
 : -12%	11%	16%	nt	16%	-1%	nt	nt
> O=C1CCCN1CC(O)CS(=O)(=O)Cc1ccc(Cl)cc1Cl (stereo unspecified)
 : nt	1%	-9%	nt	4%	3%	nt	nt
> Cc1nnc(SCC(=O)Nc2ccc3c(c2)COC3=O)n1-c1ccccc1
 : nt	1%	3%	nt	13%	-8%	-6%	3.5%
> COc1cc(C(=O)Nc2ccc(S(=O)(=O)N3CCCCC3C)cc2)cc(OC)c1OC (stereo unspecified)
 : -15%	0%	-9%	-19%	-59%	4%	?	-0.8%
> CCCn1nc(C(=O)NNC(=O)Cc2ccc(S(=O)(=O)N3CCOCC3)s2)c2ccccc2c1=O
 : -8%	-10%	-19%	-21%	nt	8%	nt	nt
> Cc1ccc(C)c(NC(=S)NC23CN4CN(CN(C4)C2)C3)c1
 : 4%[46.1 µM]	-4%	-2%	nt	nt	-10%	nt	nt
> Clc1ccc(-c2cnc3n2CCC3)cc1
 : 18%	-5%	26%	13%	-4%	2%	-9%	4.6%
> O=C(Nc1cc(C(=O)N2CCCC2)ccc1N1CCCC1)c1ccccc1
 : 14%	0%	nt	-1%	1%	13%	-2%	9.7%
> Cc1cc(C)c2c(N)c3ccccc3nc2n1
 : ?	-8%	-21%	-20%	-21%	-20%	?	-25%
> CC(C)(C)n1c(O)c2ccc(C(=O)N=NC(=O)c3ccccc3)cc2c1O
 : -11%	3%	-6%	-7%	9%	4%	nt	nt
> COC(=O)C1CCN(S(=O)(=O)CCNC(=O)c2ccc3c(c2)OCO3)CC1
 : -5%[46.1 µM]	1%	-22%	-4%	nt	8%	nt	nt
> CCC(C)Nc1nc2c(c(=O)n(C)c(=O)n2C)n1Cc1ccc(F)cc1 (stereo unspecified)
 : ?	0%	nt	0%	-7%	-5%	-4%	0.6%
> COc1cc(C(=O)NCC(=O)OCCN2C(=O)c3ccccc3C2=O)cc(OC)c1OC
 : 0%[46.1 µM]	-2%	-1%	?	nt	0%	nt	nt
> CCS(=O)(=O)Nc1ccc(-c2cn3c(C)csc3n2)cc1
 : nt	nt	-16%	-1%[46.1 µM]	nt	nt	-19%	-2.0%
> Cn1c(SCC(=O)NC(C)(C)C)nnc1-c1cccc(NC(=O)c2ccccc2F)c1
 : -5%	4%	6%	-9%	-4%	-8%	10%	2.3%
> CN(CCOc1ccc(-c2ccn(S(=O)(=O)c3cccc4ccccc34)n2)cc1)c1ccccn1
 : ?	?	11%	-10%	24%	7%	25µM*	-0.7%
> CCOC(=O)C1=NN(c2ccccc2)C(=O)C1
 : nt	8%	7%	nt	?	11%	nt	nt
> Clc1ccc(-c2nnn(Cc3nc4ccccc4s3)n2)cc1
 : -1%	-3%	7%	22%	-64%	?	-4%	0.1%
> Cc1ccc(NC(=O)CSc2nc(NS(=O)(=O)c3ccccc3)cc(=O)[nH]2)cc1
 : ?	0%	-25%	5%	7%	14%	-4%	-1.8%
> COC(=O)c1ccccc1S(=O)(=O)NNC(=O)Nc1ccccc1
 : ?	2%	-17%	?	-4%	-10%	nt	nt
> COC(=O)Cc1csc(Nc2ccccc2Cl)n1
 : ?	-52%	17%	20%	-44%	8%	-1%	-0.3%
> CC(C)N(C(=S)NC1CC2CCC1C2)c1ccccc1 (stereo unspecified)
 : -6%[46.1 µM]	3%	22%	-10%[46.1 µM]	nt	-14%	nt	nt
> CC(C)C(=O)OCC(=O)Nc1ccc(N=Nc2ccccc2)cc1
 : ?	15%	29%	?	-6%	28%	-25%	-7.5%
> COc1cccc(OCCCn2c(-c3ccc(Cl)cc3)nc3ccccc3c2=O)c1
 : 6%[46.1 µM]	nt	-21%	-3%[46.1 µM]	nt	nt	-2%	-1.0%
> CCCCCCNC(=O)CCNS(=O)(=O)c1ccc(C)cc1
 : ?	-1%	19%	-12%[46.1 µM]	nt	-18%	nt	nt
> Brc1ccc(OCc2cn3ccccc3n2)cc1
 : -29%[46.1 µM]	-2%	2%	?	-36%	?	nt	nt
> Nn1c(SCC(=O)NCc2ccccc2)nncc1=O
 : 3%	-4%	-13%	-12%	1%	56%	5%	-0.8%
> O=[N+]([O-])c1cc2c(cc1/C=N/NS(=O)(=O)c1ccc(Br)cc1)OCO2
 : ?	0%	?	nt	nt	-13%	nt	nt
> Cc1cccc(C)c1NC(=O)N1CCN(c2nc3ccccc3s2)CC1
 : ?	-1%	0%	?	-4%	16%	-10%	-0.9%
> COc1ccc(S(=O)(=O)Nc2ccccc2C(=O)NCc2cccnc2)cc1
 : ?	0%	9%	?	5%	-20%	nt	nt
> Cc1cc(-c2n[nH]c(=S)n2/N=C/c2ccc(Cl)c([N+](=O)[O-])c2)n[nH]1
 : ?	18%	-11%	?	7%	-10%	-5%	-9.3%
> COc1cccc(NC(=O)CN2CCN(c3nc(-c4cccc(OC)c4)cs3)CC2)c1
 : ?	-20%	-1%	-24%	?	-20%	24%	-8.8%
> NC(=O)CC(NC(=O)c1ccccc1)c1ccc(NCc2ccc(F)c(F)c2)c([N+](=O)[O-])c1 (stereo unspecified)
 : nt	2%	-8%	nt	6%	6%	nt	nt
> COc1ccc(CCN(C)C(=O)c2cc(S(=O)(=O)N3CCCCCC3)ccc2OC)cc1OC
 : ?	-3%	-14%	-14%	nt	-11%	nt	nt
